Screens: PubChem BioAssay, National Center for Advancing Translational Sciences (NCATS)
Sfp inh: inhibitors of Bacillus subtilis Sfp phosphopantetheinyl transferase; AID 1490; Potency, µM, inactives show max response, negative = inhibition, hits mostly inhibitors; 310,000 compounds, 3.5% hits; Q9F4F7; Biochemical Sfp PPTase activity, qHTS; active means well fitted inhibition curve with a large enough effect; inconclusive means small, poorly fitted or top-dose-only effect, or another doubt; inactive means no such curve, though single readings can be large or run the other way;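 further: the enzyme is Sfp with the accession as filed and its product quenches rhodamine fluorescence; potency means the concentration at half of the fitted maximal effect; 0% = enzyme reaction without inhibitor and -100% = no enzyme wells; top concentration of the series not given in the record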
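Reaction rates are the 30-min fluorescence difference (ex 525, em 598 nm) in wells containing 15 nM Sfp, 5 uM rhodamine-CoA and 12.5 uM BHQ-2-YbbR at pH 7.6 with 10 mM MgCl2.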
TRPML1 blocker: inhibitors of human TRPML1 channel | TRPML1-inducible cells, Ca2+ dye fluorescence, FDSS; active compounds read low; inhibition of EC80 agonist-evoked calcium signal | activity change, negative = inhibition, % (concentration not given with the values) | 390,000 compounds, 0.02% hits; in the data active means activity change below about -50%; inconclusive means about -30% to -50%; inactive means above about -30%;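 further: stimulus is agonist 54-4 at its EC80 concentration; on the % scale 0 is the no-effect control and ±100 the full control effect; the text of the record puts the active cut at -80%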
Target sequence (Q9GZU1 whole entry, looked up): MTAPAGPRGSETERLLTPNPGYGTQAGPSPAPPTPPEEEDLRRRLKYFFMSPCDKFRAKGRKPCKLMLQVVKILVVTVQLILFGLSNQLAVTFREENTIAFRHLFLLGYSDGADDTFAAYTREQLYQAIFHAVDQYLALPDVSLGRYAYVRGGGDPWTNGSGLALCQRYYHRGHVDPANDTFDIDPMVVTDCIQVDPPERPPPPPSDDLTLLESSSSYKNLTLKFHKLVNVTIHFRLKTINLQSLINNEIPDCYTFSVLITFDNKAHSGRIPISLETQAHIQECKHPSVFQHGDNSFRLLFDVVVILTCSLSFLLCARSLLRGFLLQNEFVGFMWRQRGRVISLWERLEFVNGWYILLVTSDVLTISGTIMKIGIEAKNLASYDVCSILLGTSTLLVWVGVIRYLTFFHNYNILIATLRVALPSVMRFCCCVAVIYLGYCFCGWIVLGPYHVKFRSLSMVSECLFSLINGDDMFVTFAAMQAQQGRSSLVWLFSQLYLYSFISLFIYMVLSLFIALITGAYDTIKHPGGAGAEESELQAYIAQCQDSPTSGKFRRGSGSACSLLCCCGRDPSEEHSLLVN
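Tet-induced TRPML1-DL cells loaded with Ca8 no-wash calcium dye were read kinetically on FDSS. Compound addition was followed by EC80 agonist 54-4 (4 uM final); inhibition was read over 110 s.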
ClpP mod: qHTS Assay for Activators of ClpP. ATP-dependent Clp protease proteolytic subunit (Bacillus subtilis (strain 168)), P80244. purified B. subtilis ClpP, FRET peptide cleavage, 20 min. Potency, µM (top dose mostly 57.5 µM), for the others: top-dose activity change, negative = active. 340,000 compounds, 1.9% hits. AID 651965, 2013; active = well fitted falling curve with a large enough effect; inconclusive = small, poorly fitted or top-dose-only effect; inactive = no such curve, though single readings can be large or run the other way; further: potency means the concentration at half of the fitted maximal effect; the source files actives as falling curves though it sought activators and does not explain the sign; nearly all actives have a fitted effect of over 65% in size; many hits overshoot -100%
Target sequence (P80244 whole entry, looked up): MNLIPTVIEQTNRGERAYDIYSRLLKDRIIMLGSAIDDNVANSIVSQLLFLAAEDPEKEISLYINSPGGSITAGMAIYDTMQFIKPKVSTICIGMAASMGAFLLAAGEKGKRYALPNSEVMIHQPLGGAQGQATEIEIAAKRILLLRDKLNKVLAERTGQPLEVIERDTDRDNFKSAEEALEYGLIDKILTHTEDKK
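FRET quenching reversal measured ClpP activation: 10 microg/mL B. subtilis ClpP at pH 8 with the FRET-FV decapeptide, read at 430 nm after 320 nm excitation. The 20-min minus 0-min signal was scaled between DMSO/no-enzyme wells and ADEP (5.8 microM final).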
TRPV1 PAM: human TRPV1 potentiation | Q8NER1 | TRPV1-expressing cells, Fluo-8 calcium influx, capsaicin EC20 potentiation; host cell line not named in the record; control for the full effect not named in the record | potentiation, % at 8.33 µM | 320,000 compounds, 0.02% hits | AID 540277; active means potentiation above 80%; inconclusive means 30% to 80%; inactive means below 30%; further: 0% is about no effect
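Cells expressing TRPV1 were dye-loaded with Fluo-8 and read kinetically: 10 s baseline, 3 min after compound (agonist portion), then 2 min after EC20 capsaicin (allosteric enhancer portion). Calcium-bound dye fluorescence at 480/520 nm.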
Menin-MLL FL inh: displaces fluorescein MLL peptide from human menin. Fluorescence polarization, fluorescein-MLL peptide displacement from menin. FP activity change, % at 61.4 µM. 290,000 tested, under 10 active; inconclusive = falling polarisation curve, or a change in total fluorescence; inactive = total fluorescence flat and polarisation flat or rising; no compound was filed as active; the % refers to the polarisation; negative = inhibition;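 further: % of control where 0% means no effect; inhibitors lower the polarisation; unlabelled MLL peptide was the positive control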
PINK1 modulator: changes PINK1 expression | PINK1 immunofluorescence, high-content cytometry, 24 h | 410,000 compounds, 0.2% hits | Potency, µM (top dose mostly 76.6 µM), for the others: at the top dose activation (PINK1 increase), hits mostly activators | AID 624263; active = well fitted activation curve with a large enough effect; inconclusive = small, poorly fitted or top-dose-only effect; inactive = flat fitted curve, though single readings scatter; cell line not stated here;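 further: potency means the concentration at half of the fitted maximal effect; % of control where 0% means no effect; nearly all actives have a fitted effect of over 65% in size; a mitochondrial uncoupler was the plate control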
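Decision-based qHTS: stable cells, 24 h exposure to five compound concentrations, CCCP as control. Fixed cells stained for PINK1 plus nuclear, mitochondrial and cell markers, cytometer read.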
TRPML1 agonist: agonists of human TRPML1 channel; Q9GZU1; AID 624414; TRPML1-expressing cells, Ca2+ dye fluorescence, FDSS; host cell line not named in the record; reference of the full effect not given here; 410,000 compounds, 0.12% hits; activation, % (no concentration beside the values); in the data active = activation above about 50%; inconclusive = about 30% to 50%; inactive = below about 30%; further: 0% is about no effect; the text of the record puts the active cut at 80%
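Calcium fluorescence on an FDSS kinetic reader gave the read-out. Tet-induced TRPML1-DL cells were plated overnight, dye-loaded (Ca8 with quencher, 45-90 min, room temperature, dark), then read 110 s after compound addition, and again 110 s after 4uM final 54-4 (EC80).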
* hit, by the source's call; [ ] = dose if it differs, or a comment.

Screening Cn1nnnc1SCc1cn2cccnc2n1 returned Sfp inh 4%, TRPML1 blocker 11, ClpP mod 8.3%, TRPV1 PAM 2, Menin-MLL FL inh 3.0, PINK1 modulator 1.3% and TRPML1 agonist 0.2.
N#CCC(=O)NCCCOC(=O)Nc1ccc(Cl)c(Cl)c1 was read as Sfp inh 9%, TRPML1 blocker 3, ClpP mod -0.1%, TRPV1 PAM 24, Menin-MLL FL inh -1.1, PINK1 modulator 1.9%[38.3 µM] and TRPML1 agonist 0.0.
CC1CCCN(C(=O)CSCC(=O)N=c2sc3ccccc3n2C)C1 (configuration not stated) was read as Sfp inh 20%, TRPML1 blocker -7, ClpP mod -3.3%, TRPV1 PAM -9, Menin-MLL FL inh -2.5, PINK1 modulator 0.1% and TRPML1 agonist 0.9.
`Cc1cc(Oc2ccccc2F)nc(NCc2ccccc2)n1` gave Sfp inh -3%, TRPML1 blocker 6, ClpP mod 0.9%, TRPV1 PAM -9, Menin-MLL FL inh 5.2, PINK1 modulator 8.8% and TRPML1 agonist 1.1.
Cc1ccc(C(=O)NCC(=O)Nc2ccccc2C(F)(F)F)cc1 was read as Sfp inh 19%, TRPML1 blocker -6, ClpP mod -0.8%, TRPV1 PAM inconclusive, Menin-MLL FL inh 0.0, PINK1 modulator 3.2% and TRPML1 agonist 3.0.
Screening CCC(=O)N1CCc2cc(S(=O)(=O)NC(Cc3ccccc3)C(=O)Nc3ccc(C)cc3)ccc21 (configuration not stated) returned TRPML1 blocker -4, ClpP mod 0.5%, PINK1 modulator 1.7% and TRPML1 agonist 0.9.
Screening O=C(O)C(Cc1ccccc1)Nc1ccc([N+](=O)[O-])cc1[N+](=O)[O-] (configuration not stated) returned Sfp inh -5%, TRPML1 blocker 6, TRPV1 PAM 2, Menin-MLL FL inh -1.7, PINK1 modulator 0.7% and TRPML1 agonist 0.6.
CCc1ccc(NC(=O)CSc2nnc(-c3cccs3)n2CC)cc1 was read as Sfp inh 10%, TRPML1 blocker -7, ClpP mod -1.0%, TRPV1 PAM 2, Menin-MLL FL inh 3.5, PINK1 modulator -1.3% and TRPML1 agonist 0.8.
Screening Cc1ccccc1OCC(=O)N1CCN(C(=O)COc2ccccc2C)CC1 returned Sfp inh 7%, TRPML1 blocker -5, TRPV1 PAM 1, PINK1 modulator 0.9% and TRPML1 agonist 0.7.
For CCCN1C(=O)/C(=C/c2c(N3CCNC(=O)C3CC(=O)OCC)nc3c(C)cccn3c2=O)SC1=S (configuration not stated) the results were Sfp inh -21%, TRPML1 blocker -8, ClpP mod -1.9%, TRPV1 PAM 12, Menin-MLL FL inh inconclusive, PINK1 modulator -0.2% and TRPML1 agonist 21.
For C[C@H](NC(=O)c1ccccc1)C(=O)OCC(=O)c1c[nH]c2ccccc12 the results were TRPML1 blocker 9, ClpP mod -1.0%, TRPV1 PAM 3, PINK1 modulator -1.2% and TRPML1 agonist 0.5.
`O=C(CSc1ccc(-c2nc3ccccc3[nH]2)cn1)Nc1ccc(S(=O)(=O)NC2CC2)cc1` gave Sfp inh 26%, TRPML1 blocker -9, ClpP mod inconclusive, TRPV1 PAM 3, Menin-MLL FL inh 1.8, PINK1 modulator 4.5% and TRPML1 agonist 1.5.
For O=C(Cn1cnc([N+](=O)[O-])c1)NCCc1ccccc1 the results were Sfp inh 5%, TRPML1 blocker -7, TRPV1 PAM 2, Menin-MLL FL inh 1.9, PINK1 modulator -1.2% and TRPML1 agonist -0.2.
`CCOc1ccc(NC(=O)CCS(=O)(=O)c2ccc3c(c2)CCCN3C(C)=O)cc1` gave Sfp inh 14%, TRPML1 blocker -8, ClpP mod -3.0%, TRPV1 PAM 8, Menin-MLL FL inh 2.3, PINK1 modulator -1.4% and TRPML1 agonist 0.8.
For Cc1c(Cl)cnc(NC(=O)COC(=O)Cc2coc3ccc4ccccc4c23)c1Cl the results were Sfp inh 5%, TRPML1 blocker -13, ClpP mod 0.5%, TRPV1 PAM -3, Menin-MLL FL inh 10, PINK1 modulator -0.7% and TRPML1 agonist 0.6.
For CCCCn1c(N)c(N(CCOC)C(=O)c2ccc(Cl)c(S(=O)(=O)N3CCCCC3)c2)c(=O)[nH]c1=O the results were TRPML1 blocker 10, ClpP mod 32µM*, TRPV1 PAM 3, PINK1 modulator 1.6% and TRPML1 agonist 0.0.
Screening O=C(O)c1ccc(/C=N/NC(=O)c2cc3c(ccc4ccccc43)o2)cc1 returned Sfp inh -25%, TRPML1 blocker -7, ClpP mod inconclusive, TRPV1 PAM 15, PINK1 modulator 0.7% and TRPML1 agonist 0.4.
`CCC1Oc2ccccc2N(CC(=O)NC2CC2)C1=O` (configuration not stated) gave Sfp inh 16%, TRPML1 blocker -8, TRPV1 PAM 7, Menin-MLL FL inh 0.5, PINK1 modulator 3.0% and TRPML1 agonist -0.5.
Screening CCOC(=O)C1=CCN(S(=O)(=O)c2ccccc2Cl)C1c1ccc(Cl)c(Cl)c1 (configuration not stated) returned TRPML1 blocker 51, ClpP mod 1.9%, PINK1 modulator 6.0% and TRPML1 agonist 1.1.
Screening CCOc1ccc(NC(=O)c2ccc(N)cc2)cc1 returned Sfp inh 16%, TRPML1 blocker 4, ClpP mod 2.7%, TRPV1 PAM -11, Menin-MLL FL inh 0.6, PINK1 modulator -0.2% and TRPML1 agonist -0.4.
For Cc1c(C(=O)O)cccc1-c1ccc(/C=N/Nc2ccc(Br)cc2)o1 the results were Sfp inh inconclusive, TRPML1 blocker -8, ClpP mod -14%, TRPV1 PAM 13, Menin-MLL FL inh inconclusive, PINK1 modulator -1.5% and TRPML1 agonist 0.6.
Screening O=C(COc1ccccc1[N+](=O)[O-])NCc1cccnc1 returned Sfp inh 3%, TRPML1 blocker -17, ClpP mod -1.2%, TRPV1 PAM -5, Menin-MLL FL inh -2.7, PINK1 modulator 0.0% and TRPML1 agonist -0.1.
For COc1ccc(CNC(=O)C2COc3ccccc3O2)c(OC)c1 (configuration not stated) the results were Sfp inh 18%, TRPML1 blocker 5, ClpP mod -1.6%, TRPV1 PAM -13, Menin-MLL FL inh 0.1, PINK1 modulator -1.4% and TRPML1 agonist 1.5.
`Cn1c(SCc2nc3ccccc3[nH]2)nnc1-c1cccs1` gave Sfp inh 10%, TRPML1 blocker 8, ClpP mod -3.5%, TRPV1 PAM -11, Menin-MLL FL inh 0.6, PINK1 modulator 0.7% and TRPML1 agonist -0.6.
For COc1ccc(Cl)cc1NC(=O)c1cnccn1 the results were Sfp inh 10%, ClpP mod 2.1%, TRPV1 PAM -5, Menin-MLL FL inh -4.3 and PINK1 modulator 0.3%.
`CCc1nc(SCC(=O)NNC(=O)c2ccc(C)cc2)c2ccccc2n1` gave Sfp inh 10%, TRPML1 blocker 9, TRPV1 PAM 28, Menin-MLL FL inh 1.0, PINK1 modulator 1.0% and TRPML1 agonist 0.2.
For CCOC(=O)C1CCCN(C(=O)C2CC(=O)N(c3ccc(C)cc3)C2)C1 (configuration not stated) the results were Sfp inh 21%, TRPML1 blocker -6, ClpP mod -0.3%, TRPV1 PAM 10, Menin-MLL FL inh 0.7, PINK1 modulator -3.4%[38.3 µM] and TRPML1 agonist 2.0.
Screening COc1ccc(/C=C/C(=O)OC(C)CN2CCCCC2)cc1 (configuration not stated) returned Sfp inh 6%, TRPML1 blocker 6, ClpP mod -11%, TRPV1 PAM -6, Menin-MLL FL inh 11, PINK1 modulator 0.5% and TRPML1 agonist 0.5.
Nc1nnc(SCC(=O)OCC(=O)Nc2ccc(Br)cc2)s1 was read as Sfp inh 12%, TRPML1 blocker 6, ClpP mod -2.6%, TRPV1 PAM -7, Menin-MLL FL inh 9.4, PINK1 modulator -0.8% and TRPML1 agonist -0.1.
COc1cc([N+](=O)[O-])cc(/C=N/NC(=O)c2cc(C)nc3ccccc23)c1O was read as Sfp inh 13%, TRPML1 blocker 20, ClpP mod 1.9%, TRPV1 PAM 22, Menin-MLL FL inh 22, PINK1 modulator 8.7% and TRPML1 agonist -0.6.

3 compounds already listed, sorted by number of heavy atoms, rising:
Screening COc1ccc(/C=C/C(=O)OC(C)CN2CCCCC2)cc1 (configuration not stated) returned Sfp inh 6%, TRPML1 blocker 6, ClpP mod -11%, TRPV1 PAM -6, Menin-MLL FL inh 11, PINK1 modulator 0.5% and TRPML1 agonist 0.5.
For CCOC(=O)C1CCCN(C(=O)C2CC(=O)N(c3ccc(C)cc3)C2)C1 (configuration not stated) the results were Sfp inh 21%, TRPML1 blocker -6, ClpP mod -0.3%, TRPV1 PAM 10, Menin-MLL FL inh 0.7, PINK1 modulator -3.4%[38.3 µM] and TRPML1 agonist 2.0.
COc1cc([N+](=O)[O-])cc(/C=N/NC(=O)c2cc(C)nc3ccccc23)c1O was read as Sfp inh 13%, TRPML1 blocker 20, ClpP mod 1.9%, TRPV1 PAM 22, Menin-MLL FL inh 22, PINK1 modulator 8.7% and TRPML1 agonist -0.6.

Further structures:
Screening Cc1ccc(NC(=O)c2ccccc2)cc1C returned TRPML1 blocker -10, ClpP mod -1.8%, TRPV1 PAM -3, PINK1 modulator 0.1% and TRPML1 agonist 0.3.
For COc1ccc(OCc2nc(C#N)c(NCc3ccccc3Cl)o2)cc1 the results were TRPML1 blocker 8, ClpP mod 0.0%, PINK1 modulator 2.2% and TRPML1 agonist 1.9.
Cc1c(Cl)cnc(NC(=O)CSc2n[nH]c(N)n2)c1Cl was read as TRPML1 blocker 26, ClpP mod 1.3%, TRPV1 PAM -9, PINK1 modulator 2.1% and TRPML1 agonist -0.8.
`O=C(NC1CCCCCC1)c1ccc(N2CCCC2=O)cc1` gave Sfp inh 16%, TRPML1 blocker 11, ClpP mod 0.4%, TRPV1 PAM 0, Menin-MLL FL inh 2.4, PINK1 modulator 1.4% and TRPML1 agonist -0.6.
`CCCc1ccc(OCc2nc(-c3ccc(NC(=O)c4cccs4)cc3)no2)cc1` gave Sfp inh -14%, TRPML1 blocker 11, ClpP mod -27%, TRPV1 PAM 24, Menin-MLL FL inh 12, PINK1 modulator 15% and TRPML1 agonist 0.7.
Screening Cc1c(NS(=O)(=O)c2ccc3nc(COc4ccccc4Cl)[nH]c3c2)c(=O)n(-c2ccccc2)n1C returned Sfp inh 1%, TRPML1 blocker 2, TRPV1 PAM 10, Menin-MLL FL inh 3.4, PINK1 modulator 0.6% and TRPML1 agonist 0.3.

Compounds were not picked by outcome. About 4.4% of those tested had a hit in this group.
